Rango release inh – qHTS Assay for Inhibitors of RanGTP induced Rango (Ran-regulated importin-beta cargo) - Importin beta complex dissociation; Snurportin-1 (Homo sapiens) + GTP-binding nuclear protein Ran (Homo sapiens) + Importin …; Biochemical FRET Rango-importin beta, RanGTP-induced dissociation; Potency, µM (doses to about 46.1 µM), for inactives: at the highest dose activity change, negative = inhibition; 0.071% of 340,000 active; AID 540253, 2011; active means falling FRET ratio curve, often poorly fitted, with flat reads before Ran was added; inconclusive means other falling curves, or compound fluorescence or quenching; inactive means flat or rising ratio curve;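 note: potency is the fitted concentration of half-maximal effect; % of control where 0% means no effect; nearly all actives have a fitted effect of over 45% in size; -100% = wells without RanGTP and RCC1; the record marks most hits as doubtful in a second field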
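FRET read at 45 min, room temperature: inhibitors block the CFP/YFP signal rise when RanGTP (0.6 uM Ran, 2 mM GTP, 0.2 uM RCC1) frees Rango (0.1 uM) from importin beta (0.25 uM). Pre-read after 5 min compound exposure flags interference.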
Rango complex inh – qHTS Assay for Inhibitors of Rango (Ran-regulated importin-beta cargo) - Importin beta complex formation; Importin subunit beta-1 (Homo sapiens), Q14974; Rango CFP/YFP FRET sensor + importin beta, 45 min; Potency, µM (highest dose often 92.2 µM), for the others: top-dose inhibition of complex formation; 0.031% of 340,000 active; AID 540263, 2011; active = rising FRET ratio curve, often small or poorly fitted; inconclusive = mostly compound fluorescence or quenching in the first reads; inactive = flat curves in all reads;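 note: potency is the fitted concentration of half-maximal effect; 0% = DMSO wells and 100% = buffer wells lacking importin beta; nearly all actives have a fitted effect of over 15% in size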
Target sequence (Q14974 whole entry, looked up): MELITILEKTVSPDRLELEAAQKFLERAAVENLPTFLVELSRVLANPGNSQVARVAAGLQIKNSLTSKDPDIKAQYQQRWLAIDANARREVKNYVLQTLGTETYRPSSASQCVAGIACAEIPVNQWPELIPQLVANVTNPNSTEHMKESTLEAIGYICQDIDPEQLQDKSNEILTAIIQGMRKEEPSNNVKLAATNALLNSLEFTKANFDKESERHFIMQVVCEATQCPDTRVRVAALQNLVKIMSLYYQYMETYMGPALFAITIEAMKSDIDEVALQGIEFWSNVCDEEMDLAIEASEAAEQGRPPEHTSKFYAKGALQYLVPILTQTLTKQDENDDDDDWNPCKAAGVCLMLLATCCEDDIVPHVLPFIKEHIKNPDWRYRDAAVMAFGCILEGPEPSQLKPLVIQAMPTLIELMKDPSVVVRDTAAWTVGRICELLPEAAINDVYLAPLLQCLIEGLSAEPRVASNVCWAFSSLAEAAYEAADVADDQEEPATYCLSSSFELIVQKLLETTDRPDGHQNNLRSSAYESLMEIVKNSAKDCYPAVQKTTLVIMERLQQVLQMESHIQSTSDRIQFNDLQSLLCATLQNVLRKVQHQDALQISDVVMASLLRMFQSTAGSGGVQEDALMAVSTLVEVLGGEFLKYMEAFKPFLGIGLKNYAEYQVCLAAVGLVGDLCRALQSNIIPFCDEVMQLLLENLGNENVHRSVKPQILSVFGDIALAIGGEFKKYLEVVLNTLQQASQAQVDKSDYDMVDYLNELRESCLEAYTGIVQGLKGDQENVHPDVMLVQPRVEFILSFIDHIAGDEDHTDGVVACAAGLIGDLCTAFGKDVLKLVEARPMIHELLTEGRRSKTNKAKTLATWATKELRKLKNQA
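FRET biosensor Rango (snurportin 1 IBB between N-terminal EYFP and C-terminal Cerulean), 50 nM in PBS/1 mM DTT/0.02% Tween-20/0.1% BSA, preincubated 5 min RT with compound; 0.125 microM importin beta added, 45 min RT, CFP/YFP FRET ratio read.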
miR-21 reporter – qHTS Assay for Modulators of miRNAs and/orActivators of miR-21 | HeLa miR-21 FLuc reporter, luciferase, 48 h | Potency, µM (titrated, usually from 38.3 µM), without a hit: at the highest dose reporter change, positive = more light | 340,000 tested, under 10 active | AID 2288, 2010; active = well fitted rising curve with a large enough effect; inconclusive = small, poorly fitted or top-dose-only effect; inactive = no such curve, though single readings can be large or run the other way;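 note: % of control where 0% means no effect; miR-21 action dims this reporter so a rising signal means less miR-21 action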
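Luminescence from a firefly luciferase reporter carrying a miR-21 binding site downstream, stably expressed under a CMV promoter in HeLa cells that make miR-21 endogenously, reports miRNA modulation after 48 h compound exposure up to approximately 40uM final.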
GLA inh pH 4.5 – qHTS Assay for Inhibitors of Human alpha-Galactosidase at pH 4.5. activity change, negative = inhibition, % at 105 µM. 230,000 tested, under 10 active. purified enzyme, 4-MU-alpha-Gal fluorescence, pH 4.5; inconclusive = small, poorly fitted or top-dose-only inhibition, or a rising curve; inactive = flat fitted curve, though single readings scatter; no compound was filed as active;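 note: 0% = full activity with enzyme and -100% = basal without enzyme; dose as in the result columns while the protocol names 77 µM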
* hit, by the source's call; ? = inconclusive; . = not tested or not shown; & = joins results of further samples. A portion of the library. The share of hits here may be higher or lower than overall.

Every second line gives: Rango release inh, Rango complex inh, miR-21 reporter, GLA inh pH 4.5
1: CC(C)(C)n1c(O)c2ccc(C(=O)N=NC(=O)c3ccccc3)cc2c1O
 : -3%, -6.6%, 0%, .
2: COC(=O)C1CCN(S(=O)(=O)CCNC(=O)c2ccc3c(c2)OCO3)CC1
 : -1%, 0.2%, ., .
3: CCC(C)Nc1nc2c(c(=O)n(C)c(=O)n2C)n1Cc1ccc(F)cc1 (configuration not stated)
 : 6%, -1.8%, 3%, 0
4: COc1cc(C(=O)NCC(=O)OCCN2C(=O)c3ccccc3C2=O)cc(OC)c1OC
 : 1%, -1.1%, 3%, 7
5: CCSC1=C(C#N)C(c2cccc(O)c2)CC(=O)N1 (configuration not stated)
 : -13%, 2.7%, -4%, 3
6: Cc1ccc(SC[C@H](CC(C)C)N2CCN(C)CCC2=O)cc1
 : 4%, -1.0%, -67%, 3
7: CCOc1ccc(NC(=O)C2CCN(c3nnnn3-c3ccccc3)CC2)cc1
 : 16%, 1.9%, -7%, -9
8: Cc1ccc(C)c(NC(=O)CN(C)C(=O)CN2C(=O)NC3(CCc4ccccc43)C2=O)c1 (configuration not stated)
 : 5%, -0.4%, ., .
9: CCC(C)[C@H](NC(=O)N1CCn2c1nc1ccccc12)C(=O)NCCc1ccccc1 (some centres not stated)
 : 22%, -0.8%, -13%, .
10: CCCN1CCC(N(C)CCc2ccc(OC)c(OC)c2)CC1
 : 16%, -4.9%, -7%, -2
11: Cc1ccc(C(=O)NCCc2nnc3ccc(NCc4ccc5c(c4)OCO5)nn23)cc1
 : -13%, 2.3%, -9%, .
12: O=C1CCCN1CC(O)CS(=O)(=O)Cc1ccc(Cl)cc1Cl (configuration not stated)
 : 0%, -1.7%, 1%, .
13: Cc1nnc(SCC(=O)Nc2ccc3c(c2)COC3=O)n1-c1ccccc1
 : -2%, -1.4%, 0%, -1
14: COc1cc(C(=O)Nc2ccc(S(=O)(=O)N3CCCCC3C)cc2)cc(OC)c1OC (configuration not stated)
 : -4%, -6.4%, 18%, -7
15: CCCn1nc(C(=O)NNC(=O)Cc2ccc(S(=O)(=O)N3CCOCC3)s2)c2ccccc2c1=O
 : -4%, 2.3%, ., .
16: O=C1C2C3C=CC(C4CC34)C2C(=O)N1/N=C/c1ccc(-c2ccc([N+](=O)[O-])cc2)o1 (configuration not stated)
 : -10%, ?, 4%, 0
17: COc1nc(-c2ccccc2)ncc1S(=O)(=O)c1ccccc1
 : 2%, 3.2%, 0%, 3
18: O=C(NC(Cc1ccccc1)C(=O)O)c1cccnc1Cl (configuration not stated)
 : -17%, -2.6%, -1%, .
19: CN(C)C(=O)N1CCN(S(=O)(=O)c2ccc3ccccc3c2)CC1
 : 11%, 3.8%, 7%, .
20: C=CCn1c(SC(C)C(=O)Nc2ccc(F)c(F)c2F)nnc1C1CC1 (configuration not stated)
 : -8%, 6.3%, ., .
21: Cn1cc(CCC(=O)N2CCCC(C(=O)c3cccc4ccccc34)C2)cn1 (configuration not stated)
 : 3%, -0.1%, -25%, 1
22: CC(=O)Nc1cccc(N/C(N)=N/c2nc(C)cc(C)n2)c1
 : 12%, 0.1%, 2%, 1
23: O=C(OCC(=O)N1CCN(S(=O)(=O)c2ccc(Cl)cc2)CC1)C1CC1
 : -4%, ?, ., .
24: O=C(COC(=O)/C=C/c1cccc(F)c1)Nc1ncccn1
 : -14%, -3.9%, 2%, -8
25: Cc1occc1C(=O)Nc1ccccc1C#N
 : ?, -3.4%, -2%, .
26: CCC(Oc1ccc(C)cc1)C(=O)Nc1ccccc1C(=O)N1CCOCC1 (configuration not stated)
 : 2%, 2.5%, 4%, .
27: Cc1cc(C)c[n+](-c2nc3ccccc3nc2[N-]S(=O)(=O)c2cccs2)c1
 : -3%, 4.3%, -1%, 2
28: CC(=O)Nc1ccc(OCC(=O)NCCc2ccccc2)cc1
 : 9%, -0.7%, -6%, -6
29: CCc1ccc(NC(=O)C2=CC(c3ccc(OC)cc3)=NS(=O)(=O)N2C)cc1
 : 2%, 0.9%, 0%, .
30: COc1ccc(CC(=O)OCC(=O)Nc2cccnc2Cl)cc1OC
 : -18%, -0.9%, -1%, -13
31: NS(=O)(=O)c1cccc(NC(=O)CSc2nc3ccccc3n2-c2ccccc2)c1
 : 8%, -0.2%, 5%, -6
32: CSc1cccc(NC(=O)/C=C/c2ccccc2)c1
 : -4%, -1.5%, -36%, .
33: O=C1CCCC(=O)C1C(c1ccc(Cl)cc1)C1C(=O)CCCC1=O
 : 6%, 7.1%, ., .
34: CSc1sccc1/C=N/O
 : -12%, 3.2%, -31%, -6
35: Cc1ccc(NS(=O)(=O)c2ccc(Cl)c(C(=O)Nc3ccccc3-c3nc4ccccc4[nH]3)c2)cc1C
 : 1%, 0.5%, 19%, -1
36: O=C(Oc1c(Cl)cc(Cl)c2cccnc12)N1CCOCC1
 : -2%, 4.6%, -6%, -2
37: CCNc1nc(C)nc2c1oc1ccccc12
 : -4%, 5.5%, -12%, 5
38: Cc1cc(NC(=O)C2=C(O)c3ccccc3S(=O)(=O)N2C)no1
 : 0%, -3.7%, -4%, 2&-1&0
39: Cc1c(Cl)cccc1NC(=O)CCN1CCC(C(N)=O)CC1
 : -2%, -0.5%, 0%, .
40: O=c1c2c3c(sc2nc2n1CCCCC2)C(O)CCC3 (configuration not stated)
 : 28%, -0.6%, -31%, -8

Of the compounds above, these contain a Cl atom:
Every second line gives: Rango release inh, Rango complex inh, miR-21 reporter, GLA inh pH 4.5
12: O=C1CCCN1CC(O)CS(=O)(=O)Cc1ccc(Cl)cc1Cl (configuration not stated)
 : 0%, -1.7%, 1%, .
18: O=C(NC(Cc1ccccc1)C(=O)O)c1cccnc1Cl (configuration not stated)
 : -17%, -2.6%, -1%, .
23: O=C(OCC(=O)N1CCN(S(=O)(=O)c2ccc(Cl)cc2)CC1)C1CC1
 : -4%, ?, ., .
30: COc1ccc(CC(=O)OCC(=O)Nc2cccnc2Cl)cc1OC
 : -18%, -0.9%, -1%, -13
33: O=C1CCCC(=O)C1C(c1ccc(Cl)cc1)C1C(=O)CCCC1=O
 : 6%, 7.1%, ., .
35: Cc1ccc(NS(=O)(=O)c2ccc(Cl)c(C(=O)Nc3ccccc3-c3nc4ccccc4[nH]3)c2)cc1C
 : 1%, 0.5%, 19%, -1
36: O=C(Oc1c(Cl)cc(Cl)c2cccnc12)N1CCOCC1
 : -2%, 4.6%, -6%, -2
39: Cc1c(Cl)cccc1NC(=O)CCN1CCC(C(N)=O)CC1
 : -2%, -0.5%, 0%, .

Later entries
Every second line gives: Rango release inh, Rango complex inh, miR-21 reporter, GLA inh pH 4.5
41: COc1ccc(-c2ccc(=O)n(CC(=O)Nc3nnc(C(C)C)s3)n2)cc1OC
 : 1%, 3.6%, -5%, 1
42: CCNc1ccc2noc3c2c1C(=O)c1ccccc1-3
 : ?, ?, 0%, -10
43: CCOC(=O)Cc1cnc(NC(=O)CSc2nc(C(C)C)cc(=O)[nH]2)s1
 : 1%, 0.5%, 2%, .
44: CCOC(=O)c1cn(CC)c2ccc(S(=O)(=O)N3CCC(C)CC3)cc2c1=O
 : -14%, 6.3%, -5%, -2
45: COCCCNC(=O)Cn1c(=O)n(CC(=O)N2CCCCC2)c(=O)c2sccc21
 : 26%, 0.1%, 1%, .
46: CN1CCN(S(=O)(=O)c2ccc(SCCOc3ccccc3)nc2)CC1
 : -4%, -3.3%, -13%, -1
47: COCCNC(=O)CSc1nc2ccc(N3CCOCC3)cc2c(=O)n1CCc1ccccc1
 : -20%, ?, -14%, -3
48: CCCCCCCNC(=O)C1(CC2CC(c3ccccc3)=NO2)CCN(C(=O)c2ccccc2)CC1 (configuration not stated)
 : 8%, 8.6%, ., .
49: CC(C)(C)n1nnnc1C(c1ccc(Cl)cc1)N1CCCc2ccccc21 (configuration not stated)
 : -1%, 0.1%, -3%, 4
50: CCOC(=O)C(NCCCCl)c1ccccc1 (configuration not stated)
 : -5%, 0.5%, -2%, -3
51: Cc1ccc(C(=O)c2c3ccc(N)cc3nn2CCC(N)=O)cc1
 : ?, ?, -7%, .
52: COC(=O)CSc1nc(COc2ccccc2)nc2ccccc12
 : -1%, -0.3%, 0%, .
53: Cc1c(NC(=O)C2CCCN2C(=O)c2cccs2)c(=O)n(-c2ccccc2)n1C (configuration not stated)
 : 11%, 3.8%, -5%, 2
54: O=c1[nH]c2ccccc2nc1CCc1ccccc1
 : 1%, -11%, -30%, 4
55: N#Cc1c(-c2ccncc2)c2c([nH]c1=O)-c1ccccc1OC2
 : ., ., 7%, ?
56: CCOc1ccccc1CNC(=O)C1CCN(C(=O)N2CC(C)Oc3ccc(C)cc32)CC1 (configuration not stated)
 : 3%, 0.8%, 19%, .
57: COc1ccc(S(=O)(=O)N(C)c2ccc(C(=O)NCc3ccncc3)cc2)cc1
 : 6%, -0.9%, 8%, .
58: O=C(O)COCCN1CCN(C(c2ccccc2)c2ccc(Cl)cc2)CC1 (configuration not stated)
 : 12%, 0.4%, -1%, 8&5
59: COc1cc(C(=O)N/C(=C\c2cn(C)c3ccccc23)C(=O)NCCCO)cc(OC)c1OC
 : -5%, 0.0%, -2%, -4
60: COC(=O)C(C)Oc1ccc(-c2nccc(-c3ccc(F)cc3)n2)cc1 (configuration not stated)
 : 0%, 0.6%, -25%, .
61: COC(=O)C(C(=O)OC)c1ncc(C(F)(F)F)cc1Cl
 : -10%, -2.0%, 0%, 6
62: COC(=O)C(N)Cc1ccc(OC)c([N+](=O)[O-])c1 (configuration not stated)
 : -1%, 7.5%, -2%, -3
63: O=C(Nc1cc(Cl)cc(Cl)c1)C(NCCO)c1ccccc1 (configuration not stated)
 : -3%, 3.0%, -4%, 10
64: O=C(NCCCN1CCCC1)c1ccc2c(c1)N(Cc1ccccc1F)C(=O)c1ccccc1S2(=O)=O
 : -10%, 2.5%, 0%, .
65: CC(C)(C)c1cc2nc(N)nc(N)n2n1
 : 6%, -1.4%, -14%, 9
66: c1ccc2sc(SN3CCOCC3)nc2c1
 : -4%, -0.2%, -6%, 0
67: CC(=O)c1sc(NC(=O)C2=NN(c3ccccc3)C(=O)CC2)nc1C
 : -23%, -2.9%, -3%, -8
68: CCOC(=O)C1(Cc2ccc(OC)cc2)CCN(C(=O)CCc2cccnc2)CC1
 : 0%, 0.2%, -9%, -4
69: Cc1cc(NC(=O)CSCC(=O)OC(C)C(=O)c2cc(C)c(C)cc2C)no1 (configuration not stated)
 : 1%, -0.4%, ., .
70: Cc1nn(Cc2ccccc2)c(C)c1NC(=O)CSc1nc2sc3c(c2c(=O)n1C)CCC3
 : 0%, 0.0%, ., .
71: COC(=O)c1sc2nc(C)cc(C)c2c1N
 : 26%, -4.4%, -17%, -3
72: Nc1cc(=O)[nH]c(=O)n1CC1CC1
 : 17%, 4.7%, -2%, 5&9
73: CC(C)c1nc(-c2ccc([N+](=O)[O-])cc2)cs1
 : -9%, -2.7%, -36%, -7
74: Cn1c(=O)n(C)c2cc([N+](=O)[O-])c(N3CCN(C(=O)c4cccc(F)c4)CC3)cc21
 : 0%, 4.5%, 13%, 5
75: CCN(C(=O)COC(=O)CCc1ccccc1)c1ccccc1
 : -7%, -0.4%, 0%, .
76: Cn1c(SCc2cccnc2)nnc1-c1c[nH]c2ccccc12
 : 3%, 2.2%, -26%, 2
77: CCc1nnc2cccc(Cl)n12
 : 17%, 3.1%, -2%, 7
78: Cc1ccc(C(=O)OCCn2cc(C#N)c(=O)[nH]c2=O)cc1
 : 20%, 4.2%, -16%, 2
79: CCN1C(=O)[C@H]2[C@@H](c3ccc(-c4ccc(OC)cc4)c(OC)c3)N[C@@](Cc3ccccc3)(C(=O)OC)[C@H]2C1=O
 : -11%, -1.9%, ., .
80: COc1ccccc1NC(=O)C(=O)NCc1ccccc1Cl
 : 13%, -2.6%, -10%, 2
